Compound activity (PubChem)
KCNQ2 pot: potentiators of rat KCNQ2 potassium channel; CHO-K1 KCNQ2, FluxOR thallium flux fluorescence; hits give high values; B-score at 10 µM; 310,000 tested, 0.54% active; AID 2239;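 active means fluorescence ratio B-score at least 3 SD of library B-scores, with initial fluorescence B-score within 3 SD, cut at about 5.3 in these data; same plate scores as AID 2156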;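 further: B-score of peak minus minimum over baseline fluorescence ratio after K+ and Tl+ stimulus; positive B-score means potentiation of KCNQ2 with more thallium influx and brighter signal; only the inactives scoring about 0 or higher are listed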
Target sequence (O88943 whole entry, looked up): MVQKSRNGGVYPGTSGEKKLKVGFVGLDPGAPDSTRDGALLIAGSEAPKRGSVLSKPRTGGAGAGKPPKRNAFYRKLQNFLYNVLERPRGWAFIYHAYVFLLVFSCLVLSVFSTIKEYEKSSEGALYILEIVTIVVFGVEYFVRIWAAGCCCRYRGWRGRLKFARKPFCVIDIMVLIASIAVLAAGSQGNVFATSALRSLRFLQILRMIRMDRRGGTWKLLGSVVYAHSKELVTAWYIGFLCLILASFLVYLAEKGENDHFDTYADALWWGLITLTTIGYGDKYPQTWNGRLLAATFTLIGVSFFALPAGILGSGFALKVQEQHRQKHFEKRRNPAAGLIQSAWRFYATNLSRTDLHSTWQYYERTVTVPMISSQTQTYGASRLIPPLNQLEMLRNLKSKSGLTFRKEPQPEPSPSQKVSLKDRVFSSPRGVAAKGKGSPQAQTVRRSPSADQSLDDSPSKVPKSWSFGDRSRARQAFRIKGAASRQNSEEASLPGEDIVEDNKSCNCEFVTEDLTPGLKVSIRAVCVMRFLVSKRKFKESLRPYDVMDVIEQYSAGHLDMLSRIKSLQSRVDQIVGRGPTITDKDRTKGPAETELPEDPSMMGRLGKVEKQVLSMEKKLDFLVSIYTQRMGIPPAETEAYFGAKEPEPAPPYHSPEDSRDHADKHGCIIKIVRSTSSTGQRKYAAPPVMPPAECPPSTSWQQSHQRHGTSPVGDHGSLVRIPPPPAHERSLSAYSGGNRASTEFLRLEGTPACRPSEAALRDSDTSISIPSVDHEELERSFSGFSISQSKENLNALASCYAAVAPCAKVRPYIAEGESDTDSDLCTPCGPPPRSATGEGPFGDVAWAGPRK
KCNQ2 pot baseline: recorded beside KCNQ2 pot, whose call it bears; B-score; compound at 10 µM; measured here: initial fluorescence intensity artifact check;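 brightness before thallium and not channel activity; 0 = typical well and far values either way flag optical interference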
Starred values were filed as active, the others as inactive. The list is partial (hit frequency here may not be typical).

SMILES	KCNQ2 pot	KCNQ2 pot baseline
COc1ccccc1OCc1nnc(SCC(=O)N2CCCCC2)o1	0.29	1.4
CCCn1c(N)c(C(=O)CSc2nnc(C3CC3)n2Cc2ccccc2)c(=O)[nH]c1=O	0.92	-0.95
CCOc1ccc(N(CC(=O)NCc2ccco2)C(=O)CCC(=O)Nc2nccs2)cc1	0.03	0.74
CCN(CC)c1ccc(/C=N/NC(=O)CNC(=O)C2COc3ccccc3O2)c(O)c1 (centres undefined)	0.14	-0.17
CC(C)NC(=O)c1cc(-n2cnnc2)ccc1Cl	0.78	0.39
Cc1ccc(-c2cn3cccnc3n2)cc1NC(=O)c1ccc(Br)o1	0.02	-0.22
CCOC(=O)N1CCN(C(=O)CN(c2ccc(OCc3ccccc3)cc2)S(C)(=O)=O)CC1	0.15	1.1
CCOC(=O)N1CCC(NC(=O)CN2C(=O)C(CC)Oc3ccc(C)cc32)CC1 (centres undefined)	1.8	0.98
O=c1[nH]c2cc3c(cc2cc1C(c1nnnn1CC1CCCO1)N1CCCCCC1)OCCO3 (centres undefined)	0.02	0
O=C(c1ccc(S(=O)(=O)N2CCOCC2)cc1)N1CCc2ccccc21	0.23	1.8
CC1CCCCN1C(=O)c1cc(S(=O)(=O)N2CCCCC2)c[nH]1 (centres undefined)	0.7	-0.49
COc1cc(CN2CCCCCC2)cc(Br)c1O	1.7	1.6
CC(=O)c1ccc(NC(=O)c2c(C)nn(-c3ccccc3)c2Cl)cc1	0.98	0.83
COc1ccc(S(=O)(=O)N(C)CC(=O)N2CCN(C)CC2)cc1Cl	0.17	-0.04
COC(=O)c1ccccc1NC(=O)C1CCCN(S(=O)(=O)c2ccc(OC)cc2)C1 (centres undefined)	0.26	-0.44
O=C1C=C(O)C(n2cncn2)C(c2ccc(F)cc2)C1 (centres undefined)	0.83	1.1
CCc1ccccc1NC(=O)N[C@H](C(=O)O)C(C)CC (some centres undefined)	0.39	0.13
CCOC(=O)N1CCC(Nc2c(Nc3ccc(C)c(C)c3)c(=O)c2=O)CC1	0.74	0.25
Cc1ccnc(N2C(=O)CSC2c2ccc(Cl)cc2)c1 (centres undefined)	0.57	-0.1
Cc1ccc(F)c(NC=C2C(=O)OC(C)(C)OC2=O)c1	0.57	-0.79
CCOc1cc(C(C(=O)NCC2CCCO2)N(C(=O)Cn2nnc3ccccc32)c2ccccc2OC)ccc1O (centres undefined)	1.7	0.08
COC(=O)CCNS(=O)(=O)c1ccc2ccccc2c1	1.8	-1.3
CCC(C)NC(=O)C1CCC(=O)N1CCc1ccccc1 (centres undefined)	0.36	-1.8
COc1cccc(N2CCN(Cc3nc4ccccc4c(=O)[nH]3)CC2)c1	0.41	-1.8
COc1ccc(CN(C(=O)c2cc3ccccc3oc2=O)C2CCS(=O)(=O)C2)cc1OC (centres undefined)	0.01	-0.57

New compounds follow.
SMILES	KCNQ2 pot	KCNQ2 pot baseline
O=C(CN(C(=O)c1csnn1)c1cccc(F)c1)NCc1ccc2c(c1)OCO2	0.15	0
C=CCNC(=O)c1ccc2c(c1)S(=O)(=O)c1ccccc1C2=O	0.99	0
Fc1cccc(CSc2ccc3nnc(-c4cccnc4)n3n2)c1	0.42	-1.6
COC(=O)c1ccc(NC(=O)Cn2nc(-c3ccncc3)nc2SCC(=O)Nc2nccs2)cc1	0.07	0.5
CC1OC(OC2C(Oc3c(-c4ccc(O)cc4)oc4cc(O)cc(O)c4c3=O)OC(COC3O[C@@H](C)[C@H](O)[C@@H](O)C3O)C(O)C2O)C(O)C(O)C1O (some centres undefined)	0.4	-2.8
CCOC(=O)c1ccc(N2C(=O)C(O)=C(C(C)=O)C2c2ccccc2)cc1 (centres undefined)	1.1	-1.1
CCOC(=O)C1CCN(c2ccc([N+](=O)[O-])cc2)CC1	0.71	-2
O=C(N[C@@H](Cc1ccccc1)C(=O)O)c1c(F)c(F)c(F)c(F)c1F	0.97	1
Cc1cc(=O)[nH]c(SCC(=O)Nc2cc(S(=O)(=O)N(C)C)ccc2Cl)n1	0.11	-0.08
N#Cc1cccc(C(=O)Nc2cccc(S(=O)(=O)N3CCCC3)c2)c1	0.65	0.55
COc1ccc(S(=O)(=O)N(C)C)cc1NC(=O)CCCSc1ccccc1	0.61	-0.46
O=C(Nc1nc2n(n1)C(c1ccc(Cl)cc1)CC(c1ccc(Cl)cc1)N2)c1ccco1 (centres undefined)	0.49	-0.21
COc1ccccc1-c1ccc(=O)n(CC(=O)Nc2ccc(C(=O)N3CCCC3)cc2)n1	0.01	2.4
COc1ccc(-c2noc(CN(C)S(=O)(=O)c3ccccc3)n2)cc1OC	1.3	-2
COc1ccccc1NCN1C(=O)CCC1=O	0.15	1
CC1(C)Cc2ccccc2C(Nn2cnnc2)=N1	0.32	0.95
COc1ccc(NC(=O)Cc2c(F)cccc2Cl)cc1	0.71	-0.18
N#C/C(C(N)=O)=C1/CCc2ccccc2N1	0.29	-0.02
O=C(NC(=S)Nc1ccccc1)c1csnn1	18*	-0.47*
COc1cccc(/C=N/NC(=O)c2ccccc2NC(=O)c2ccco2)c1OC	0.05	5.5
CC1(C)CC(=O)C(C=NCCN2CCN(C3CC(=O)N(c4ccc(Br)cc4)C3=O)CC2)=C(O)C1 (centres undefined)	0.97	-1.6
O=C(Nc1ccccc1)/C(=C\c1ccccc1)NC(=O)c1ccco1	0.76	-0.31
CCN(CC)CCNC(=O)C1c2cc(OC)c(OC)cc2C(=O)N(C)C1c1cccs1 (centres undefined)	1.2	-0.46
CC1=CCn2c(=O)c3ccccc3c(=O)n2C1	0.11	-1.7
COCCn1c(SC2CCCCC2=O)nnc1-c1ccncc1 (centres undefined)	1.1	-1.9

Next records
SMILES	KCNQ2 pot	KCNQ2 pot baseline
CCCCc1ccc(NC(=S)Nc2ccc(Nc3ccc(OC)cc3)cc2)cc1	0.99	-0.1
CCn1c(C)c(C(C)=O)c(N2CCN(c3ccc(OC)cc3)CC2)nc1=S	1.8	-0.73
CCn1cc(NC(=O)Nc2ccccc2C(=O)OC)c(C(N)=O)n1	0.19	1.7
O=C(NC1=NCCS1)c1ccc(Cl)c(Cl)c1	0.36	-0.38
Cc1[nH]nc2c1C(c1ccccc1F)CC(=O)N2 (centres undefined)	0.95	0.02
O=C(COc1ccccc1)NC(Cc1c[nH]c2ccccc12)C(=O)O (centres undefined)	0.23	1.4
COc1ccc(C2CC(c3cccs3)=NN2C(=O)CCC(=O)O)cc1OC (centres undefined)	0.73	0.82
Cc1ccsc1C(=O)OCC(=O)Nc1nnc(-c2ccccc2)o1	2.2	1.4
COc1ccc(-n2c(SCC(=O)NCC3CCCO3)nc3n[nH]c(C)c3c2=N)cc1 (centres undefined)	2.2	-0.86
O=C(NCCCN1CCOCC1)c1ccc2c(=O)n(CCc3ccccc3)c(=O)[nH]c2c1	0.15	1.2
COCCC(=O)NC1CCCc2c1cnn2-c1cccc(C)c1C (centres undefined)	2.6	2
COc1ccc(OC(C)C(=O)NC2CC(C)(C)NC(C)(C)C2)cc1 (centres undefined)	0.59	-1.5
CC(C)C(=O)NC(Nc1cc(C(F)(F)F)ccc1Cl)C(Cl)(Cl)Cl (centres undefined)	0.06	0.48
O=C(c1cc(-c2ccccc2)nn1-c1ccccc1)N1CCN(S(=O)(=O)c2cccc(F)c2)CC1	0.84	-1.3
CCOC(=O)c1c(S(=O)(=O)N2CCN(c3ccc(C(C)=O)cc3)CC2)c(C)n(C)c1C	0.89	0.67
CC(C)(C)C(=O)NC(=S)NCCc1ccccc1	0.25	0.61
CC(=O)N1N=C(c2cccs2)CC1c1ccc(C)o1 (centres undefined)	1.3	-0.09
O=C(Nc1nnc(SCC(=O)N2CCCCC2)s1)c1ccccc1F	0.02	0.15
O=C1CCc2cc(S(=O)(=O)N3CCCC3C(=O)NC3CCCCCCC3)ccc2N1 (centres undefined)	0.71	-0.01
Cn1c(Cn2c(=O)sc3ccccc32)nnc1SCC(=O)NCc1ccccc1Cl	1.2	-0.23
Cc1ccc(-c2nnn(CC(=O)NC3CC4CCC3C4)n2)cc1 (centres undefined)	1.2	-0.9
COc1ccc(C2=NOC(C(=O)Nc3ccc4c(c3)OCO4)C2)cc1OC (centres undefined)	0.8	0.04
CC(/C=N/NC(=O)Cn1cnc2c1c(=O)n(C)c(=O)n2C)=C\c1ccccc1	0.04	-2.9
CCN(CC)CCOC(=O)c1ccc(NC(=O)c2cccc(C)c2[N+](=O)[O-])cc1	0.89	0.01
Cc1ccc(CSc2nnc(-c3ccncc3)n2N)cc1	1.1	0.11

Carrying on.
SMILES	KCNQ2 pot	KCNQ2 pot baseline
COCCNC(=S)N1CCN(c2ccc(Cl)cc2)CC1	0.34	-0.33
Cn1c(SC2CCCCC2=O)nnc1-c1ccncc1 (centres undefined)	0.86	-2.5
CCOC(=O)[C@@H]1[C@H]2COc3ccccc3[C@@H]2N2C(=O)N(c3ccc(C(F)(F)F)cc3)C(=O)[C@]12C	0.28	0.83
Cc1ccccc1NS(=O)(=O)c1cc(C(N)=O)ccc1C	0.19	-0.03
COc1ccc(CNCc2c(O)c(Cl)cc3c(C)c(C)c(=O)oc23)c(OC)c1	0.21	-0.01
CSc1nc(-c2ccc(Cl)cc2)nn1C(=O)c1ccccc1	0.38	-1.1
CCc1ccc(CN(C)Cc2nc(Cc3ccc(OC)c(OC)c3)no2)nc1	0.38	-0.31
Cc1ccc(NC(=O)C2CCCN(S(=O)(=O)c3ccc4[nH]c(=O)ccc4c3)C2)cc1C (centres undefined)	0.43	-0.09
O=C(CN(C(=O)Cn1nnc(-c2cccs2)n1)c1ccc2c(c1)OCCO2)NCc1ccccc1	2.6	0.01
NCCSc1c(-c2ccc(Cl)cc2)[nH]c2ccccc12	0.07	2.1
Cc1ccc(Nc2nc(N)c([N+](=O)[O-])c(NCc3ccco3)n2)cc1	2	-1.2
CCNc1ccc(S(=O)(=O)N(C)C)cc1[N+](=O)[O-]	0.4	-0.03
CC1CC(C)CN(C(=O)CN2CCN(Cc3ccc(Cl)cc3)C2=O)C1 (centres undefined)	0.16	1.1
COc1ccccc1-n1cc(C(=O)NCC(=O)N2CCN(Cc3ccccc3)CC2)c2ccccc2c1=O	1	-3.2
CCOc1ccc(CN2CCN(C/C=C/c3ccc(OC)cc3)CC2CCO)cc1 (centres undefined)	1.1	0.23
CCOc1ccc(NC(=O)c2ccc(CNc3c(NC4CCCCC4)c(=O)c3=O)cc2)cc1	1.1	0.34
CCN(CC)C(=O)NC1CCCCCCC1	0.14	0.33
Cc1cccc(C(=O)NC(=S)Nc2ccccc2C(=O)O)c1	0.4	0.08
O=C(Nc1cccc2ccccc12)c1cccc(F)c1	2.5	-0.28
O=C(Cn1ccc([N+](=O)[O-])n1)NCc1nc2ccccc2[nH]1	0.96	0.59
Cc1ccc(S(=O)(=O)NC(C)(C)CSc2nncn2C)cc1	1.1	-0.52
Cc1ccc(CN2C(=O)N/C(=C\c3cccn3-c3cccc(C(=O)O)c3)C2=O)cc1	0.97	-0.48
CC(C)CC(C)NNC(=O)c1cc2ccccc2[nH]1 (centres undefined)	1.2	1.8
CCOC(=O)C1CCN(S(=O)(=O)c2csc(C(N)=O)c2)CC1	0.65	0.83
CCn1c(COc2cccc(C)c2)nnc1SCC(=O)N1CCCC1	0.34	-0.11

15 entries from above, comma-delimited:
Compound,KCNQ2 pot,KCNQ2 pot baseline
Cc1ccc(Nc2nc(N)c([N+](=O)[O-])c(NCc3ccco3)n2)cc1,2,-1.2
CCNc1ccc(S(=O)(=O)N(C)C)cc1[N+](=O)[O-],0.4,-0.03
CC1CC(C)CN(C(=O)CN2CCN(Cc3ccc(Cl)cc3)C2=O)C1 (centres undefined),0.16,1.1
COc1ccccc1-n1cc(C(=O)NCC(=O)N2CCN(Cc3ccccc3)CC2)c2ccccc2c1=O,1,-3.2
CCOc1ccc(CN2CCN(C/C=C/c3ccc(OC)cc3)CC2CCO)cc1 (centres undefined),1.1,0.23
CCOc1ccc(NC(=O)c2ccc(CNc3c(NC4CCCCC4)c(=O)c3=O)cc2)cc1,1.1,0.34
CCN(CC)C(=O)NC1CCCCCCC1,0.14,0.33
Cc1cccc(C(=O)NC(=S)Nc2ccccc2C(=O)O)c1,0.4,0.08
O=C(Nc1cccc2ccccc12)c1cccc(F)c1,2.5,-0.28
O=C(Cn1ccc([N+](=O)[O-])n1)NCc1nc2ccccc2[nH]1,0.96,0.59
Cc1ccc(S(=O)(=O)NC(C)(C)CSc2nncn2C)cc1,1.1,-0.52
Cc1ccc(CN2C(=O)N/C(=C\c3cccn3-c3cccc(C(=O)O)c3)C2=O)cc1,0.97,-0.48
CC(C)CC(C)NNC(=O)c1cc2ccccc2[nH]1 (centres undefined),1.2,1.8
CCOC(=O)C1CCN(S(=O)(=O)c2csc(C(N)=O)c2)CC1,0.65,0.83
CCn1c(COc2cccc(C)c2)nnc1SCC(=O)N1CCCC1,0.34,-0.11

(list continues)
SMILES	KCNQ2 pot	KCNQ2 pot baseline
C/C(CC(=O)NC12CC3CC(CC(C3)C1)C2)=N\NC(=O)c1cnccn1	0.01	-0.18
CC(=O)c1c(C)nc2ccc(Br)cc2c1C(=O)O	0.8	-1.9
CC1(C(=O)O)CCC(C(=O)Nc2ccc(Cl)c(Cl)c2)C1(C)C (centres undefined)	1.3	1
CCc1cccc(C)c1NC(=O)CC1Oc2ccc(C)cc2NC1=O (centres undefined)	0.16	1.1
CN(CCN1CCOCC1)Cc1nc(-c2ccc(Cl)cc2)no1	0.2	-0.17
CC(=O)N1c2ccc(S(=O)(=O)N3CCCC3)cc2CC1C(=O)Nc1cc(C)cc(C)c1 (centres undefined)	0.14	0.21
NC(=NCCc1c[nH]c2ccccc12)NC(=O)c1ccc(F)cc1	0.4	-2.1
Cc1ccc(C(=O)N(C)CC(=O)Nc2ccc(F)c(F)c2F)o1	0.06	0.19
O=C(Nc1ncnc2sc3c(c12)CCC3)c1ccco1	0.1	-2
Cn1c(SCC(=O)Nc2cc(S(=O)(=O)N3CCOCC3)ccc2N2CCOCC2)nnc1-c1ccncc1	1.2	-2
CCOC(=O)Nc1ccc2c(c1)Nc1ccccc1S2	0.32	0.01
